TRPML1 ag – qHTS for Agonists of the Human Mucolipin Transient Receptor Potential 1 (TRPML1) | Mucolipin-1 (Homo sapiens), Q9GZU1 | TRPML1-expressing cells, Ca2+ dye fluorescence, FDSS; host cell line not named in the record; reference of the full effect not given here | activation, % (concentration not given with the values) | actives 0.12% (n = 410,000); in the data active = activation above about 50%; inconclusive = about 30% to 50%; inactive = below about 30%; note: 0% is about no effect; the text of the record puts the active cut at 80%
Target sequence (Q9GZU1 whole entry, looked up): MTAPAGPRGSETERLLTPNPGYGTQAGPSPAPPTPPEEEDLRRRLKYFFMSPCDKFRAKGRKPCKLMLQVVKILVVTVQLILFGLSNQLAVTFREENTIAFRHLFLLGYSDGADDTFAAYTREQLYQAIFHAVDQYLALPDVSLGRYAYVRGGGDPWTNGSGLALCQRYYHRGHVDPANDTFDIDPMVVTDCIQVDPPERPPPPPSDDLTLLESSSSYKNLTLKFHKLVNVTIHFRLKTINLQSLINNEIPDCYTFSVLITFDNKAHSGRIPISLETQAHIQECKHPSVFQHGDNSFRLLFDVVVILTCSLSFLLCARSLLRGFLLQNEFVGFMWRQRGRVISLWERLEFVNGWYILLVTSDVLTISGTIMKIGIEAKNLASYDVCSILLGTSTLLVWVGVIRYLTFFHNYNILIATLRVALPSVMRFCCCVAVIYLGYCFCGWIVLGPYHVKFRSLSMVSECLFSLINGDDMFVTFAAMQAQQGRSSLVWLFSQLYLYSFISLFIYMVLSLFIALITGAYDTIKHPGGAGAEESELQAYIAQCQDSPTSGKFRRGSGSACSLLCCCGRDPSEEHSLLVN
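Kinetic FDSS Ca2+ read in Tet-induced TRPML1-DL cells (ABD Ca8 dye plus quencher, 45-90 min RT loading): baseline, then compound, then 110 s agonist window; EC80 agonist 54-4 at 4uM final added afterwards for a 110 s antagonist window.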
CtBP-E1A inh – qHTS Assay for Inhibitors of the CtBP/E1A Interaction; AlphaScreen GST-E1A/His-CtBP binding, 1536-well; active compounds read low; control for the full effect not named in the record; actives 0.49% (n = 340,000); CtBP / adenovirus E1A interaction (AlphaScreen); activity change, % (no concentration beside the values); in the data active means activity change below about -65%; inconclusive means about -30% to -65%; inactive means above about -30%; note: % is set by controls: 0 for no effect and ±100 for the full control effect
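Steps: dispense buffer (Tris pH 8.0, NaCl 300 mM, TCEP 1 mM, BSA, Tween 20); add 5X protein mix (GST-E1A, His-CtBP, 125 nM each); pin 23 nL compound; 2 h at 37 °C, dark; add 5X beads (50 ug/mL); 1 h; read.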
D2 ag – Beta-Arrestin HTS for Positive Allosteric Modulators of the Human D2 Dopamine Receptor: Agonists | activation, % (concentration not given with the values) | actives 0.084% (n = 360,000) | AID 624465, 2012 | DiscoveRx PathHunter D2 beta-arrestin, luminescence, 90 min; 100% = 57 uM dopamine signal | D(2) dopamine receptor (Homo sapiens), P14416; in the data active = activation above about 40%; inconclusive = about 15% to 40%; inactive = below about 15%; note: compound concentration not given in the record; the text of the record calls up to 30% inactive
Target sequence (P14416 whole entry, looked up): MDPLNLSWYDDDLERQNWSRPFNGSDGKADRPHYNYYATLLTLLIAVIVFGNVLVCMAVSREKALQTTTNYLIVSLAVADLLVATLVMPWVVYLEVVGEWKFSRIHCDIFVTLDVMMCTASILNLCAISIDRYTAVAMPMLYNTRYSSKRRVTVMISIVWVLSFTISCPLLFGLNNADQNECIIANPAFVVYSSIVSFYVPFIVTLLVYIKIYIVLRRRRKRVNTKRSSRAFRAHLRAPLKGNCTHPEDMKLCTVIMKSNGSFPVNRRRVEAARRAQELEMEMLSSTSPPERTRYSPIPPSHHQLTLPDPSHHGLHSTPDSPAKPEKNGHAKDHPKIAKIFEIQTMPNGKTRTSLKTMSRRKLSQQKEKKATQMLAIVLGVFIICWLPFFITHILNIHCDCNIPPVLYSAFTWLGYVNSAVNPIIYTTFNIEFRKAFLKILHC
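Agonist mode: compounds alone added to overnight-plated D2 PathHunter cells for 90 min at 37 C, with 57 uM final dopamine (EC100) defining full response. Beta-arrestin recruitment detected by chemiluminescent reagent, read after 1 h at ambient temperature.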
Six1-Eya2 blk – qHTS Assay for Inhibitors of the Six1/Eya2 Interaction; Homeobox protein SIX1 (Homo sapiens) + Protein phosphatase EYA2 (Homo sapiens), …; AlphaScreen GST-Six1/His-Eya2 binding, biochemical; active compounds read low; control for the full effect not named in the record; activity change, % (test concentration not listed); actives 0.56% (n = 360,000); AID 651725, 2012; in the data active = activity change below about -65%; inconclusive = about -30% to -65%; inactive = above about -30%; note: % is set by controls: 0 for no effect and ±100 for the full control effect
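AlphaScreen with GST-Six1 and His-Eya2 (5X mix: 250 nM and 500 nM), glutathione donor and nickel acceptor beads; buffer 50 mM Tris pH 8.0, 300 mM NaCl, 1 mM TCEP; 1 h at 37 C in the dark.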
PINK1 modulator – A Quantitative High throughput Screen to Identify Chemical Modulators of PINK1 Expression; actives 0.2% (n = 410,000); PINK1 immunofluorescence, high-content cytometry, 24 h; Potency, µM (top dose mostly 76.6 µM), without a hit: top-dose activation (PINK1 increase), hits mostly activators; active = well fitted activation curve with a large enough effect; inconclusive = small, poorly fitted or top-dose-only effect; inactive = flat fitted curve, though single readings scatter; cell line not stated here;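 note: potency is the fitted concentration of half-maximal effect; % of control where 0% means no effect; nearly all actives have a fitted effect of over 65% in size; a mitochondrial uncoupler was the plate control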
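PINK1 protein level read as immunofluorescence by microplate cytometer in a fixed, stained stable cell line after 24 h exposure to five compound concentrations, with CCCP as control.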
D2 PAM – Beta-Arrestin HTS for Positive Allosteric Modulators of the Human D2 Dopamine Receptor: Potentiators; D(2) dopamine receptor (Homo sapiens), P14416; DiscoveRx D2 beta-arrestin cells, luminescence, 90 min; 100% = 57 uM dopamine signal; actives 0.23% (n = 360,000); potentiation, % (concentration not given with the values); AID 624464, 2012; active = potentiation of 50% or more; inconclusive = 30% to 50%; inactive = 30% or less;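 note: compound concentration not given in the record; tested on top of an EC20 dose of dopamine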
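D2 cells co-treated with compound plus 50 nM dopamine (EC20) for 90 min at 37 deg C to detect potentiation. Beta-arrestin recruitment was read as enzyme-fragment luminescence after 1 h at ambient temperature. Full response was set by 57 uM dopamine.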
* = called active by the depositor; ? = inconclusive; . = not tested or not shown; & = joins results of further samples; [ ] = dose if it differs, or a comment.

SMILES | TRPML1 ag | CtBP-E1A inh | D2 ag | Six1-Eya2 blk | PINK1 modulator | D2 PAM
Cc1ccc(S(=O)(=O)c2nnn(-c3cccc(F)c3)c2N)cc1 | -0.8 | -2 | -3.0 | -2 | -0.4% | -11
O=C(O)C1Cc2ccccc2CN1C(=O)COc1ccc(Cl)cc1Cl (configuration not stated) | 0.0 | -5 | 2.0 | -5 | 0.4% | -3
COCCCNCC(=O)c1c(N)n(Cc2ccccc2)c(=O)n(C)c1=O | -0.3 | -6 | -1.5 | 5 | -0.2% | -8
Cc1oc(-c2ccccc2F)nc1CS(=O)(=O)CC(=O)N1CCCCCC1 | -0.4 | -15 | -4.4 | 1 | -1.9% | -7
Cc1cccc(C(=O)Nc2ccccc2NC(=O)c2cccc(C)c2)c1 | 5.4 | -8 | -2.2 | 4 | -0.6% | -4
O=C(NN1C(=O)c2ccccc2NC12CCCCC2)c1ccccc1 | 0.3 | . | -2.9 | 5 | 2.4% | -5
Cc1c(C#N)c(O)n(CCO)c(=O)c1N=Nc1ccc2c(c1)COC2=O | -0.1 | -1 | 4.7 | -15 | -3.1% | -6
NC(=O)NNc1cccc(Cl)n1 | 0.0 | . | -1.9 | 4 | 0.2% | -5
O=C(C=Cc1cccc(Cl)c1)c1ccccc1 | 0.2 | 1 | -2.6 | -5 | -4.6% | -11
O=[N+]([O-])c1ccc(Cl)c(S(=O)(=O)/N=C(/c2ccccc2)N2CCOCC2)c1 | 1.5 | 4 | 4.3 | -3 | -3.5% | 9
CCc1ccc(OCC(=O)NNCC(=O)Nc2ccc(OC)cc2)cc1 | 2.0 | -21 | 0.0 | -4 | 2.4% | 1
CC(C)OCCCNC(=O)c1cc(S(=O)(=O)N2CCCCC2)c[nH]1 | -0.8 | -4 | -5.2 | 0 | -0.4% | -5
CN(C)S(=O)(=O)c1cc(NC(=O)CN2CCCc3ccccc32)ccc1Cl | -0.8 | -8 | 1.2 | -24 | 4.4% | -35
CCOC(=O)c1cc(-c2ccccc2)nn1Cc1cc(CC)no1 | 1.8 | 19 | -2.2 | 34 | 3.5% | -12
N#Cc1nc(COc2cccc(Cl)c2)oc1N1CCN(c2ccccc2)CC1 | 0.4 | -9 | -1.9 | ? | 4.9%[38.3 µM] | -7
CCC(C)(C)n1nnnc1CN1CCC(NC(=O)c2ccccc2C)CC1 | 0.2 | 6 | -1.9 | 5 | -1.1% | 10
CCN(CC)S(=O)(=O)c1ccc(N2CCCCC2)c(NC(=O)/C=C/c2cc(OC)c(OC)c(OC)c2)c1 | -0.2 | 1 | 1.0 | 1 | 0.1% | -18
NS(=O)(=O)c1ccc(NC(=O)CSc2ccccn2)cc1 | -0.4 | 37 | -4.0 | 21 | 29%[38.3 µM] | -16
O=C(COC(=O)c1cc(S(=O)(=O)N2CCOCC2)ccc1Cl)NCc1ccco1 | 0.0 | 5 | -2.0 | 0 | -0.5% | 26
C#CCNC(=O)C1=C[C@H](c2ccc(C(F)(F)F)cc2)C[C@H](OCCCCO)O1 | -0.5 | 0 | 1.2 | 9 | 2.2% | -2
COc1ccc2cc(C)c3nnc(SCc4cccnc4)n3c2c1 | 0.1 | -17 | -3.4 | -4 | 10% | -6
CCc1ccc(O)c(N=Cc2ccccc2O)c1 | 0.1 | -4 | 8.0 | 1 | -0.7%[38.3 µM] | 30
Cc1ccc2nc(SCc3cccc([N+](=O)[O-])c3)nc(C)c2c1 | 1.9 | -13 | -3.6 | -20 | 6.0% | -4
CCCCCCN1C[C@H](O)[C@@H](n2cc(C3CC3)nn2)C[C@@H]1c1ccc(C)cc1 | . | 6 | 3.1 | -4 | 11% | .
Cc1ccccc1N(CC(=O)N/N=C/c1ccc(F)cc1)C(=O)c1ccccc1 | 4.9 | 0 | -3.8 | -3 | -4.8% | -11
O=C(NC(Cc1ccccc1)C(=O)O)/C(=C\c1cccc([N+](=O)[O-])c1)NC(=O)c1ccco1 (configuration not stated) | -0.8 | 14 | 2.6 | 5 | 2.5% | -18
Cc1ccccc1-c1ccc(C(=O)Nc2cccc(F)c2)o1 | 3.5 | 0 | -3.1 | -2 | 4.9% | -9
COc1ccc(NC(=O)c2cc3ccccc3o2)cc1 | 0.9 | 1 | 1.5 | 4 | 1.4% | -22
Cc1ccccc1NC(=O)/C(=C\c1cccs1)NC(=O)c1ccccc1 | 1.8 | -6 | -0.8 | -3 | 0.2% | -7
Cc1cccc(NC(=O)CSc2nnc(-c3ccncc3)n2CC2CCCO2)c1 (configuration not stated) | 0.6 | 19 | 0.7 | 1 | 0.0% | -6

In the list so far, these contain a COOH group.
SMILES | TRPML1 ag | CtBP-E1A inh | D2 ag | Six1-Eya2 blk | PINK1 modulator | D2 PAM
O=C(O)C1Cc2ccccc2CN1C(=O)COc1ccc(Cl)cc1Cl (configuration not stated) | 0.0 | -5 | 2.0 | -5 | 0.4% | -3
O=C(NC(Cc1ccccc1)C(=O)O)/C(=C\c1cccc([N+](=O)[O-])c1)NC(=O)c1ccco1 (configuration not stated) | -0.8 | 14 | 2.6 | 5 | 2.5% | -18

The results go on:
SMILES | TRPML1 ag | CtBP-E1A inh | D2 ag | Six1-Eya2 blk | PINK1 modulator | D2 PAM
O=C(O)CCCCCNC(=O)Cn1nnc2ccccc2c1=O | 0.1 | 0 | -7.6 | 7 | 0.9% | -3
C=C(C)C(=O)Nc1cccnc1Oc1ccc(F)cc1F | 2.5 | -2 | 0.0 | 4 | 0.4% | -3
CC(NC(=O)c1ccc(CS(C)(=O)=O)cc1)c1cccc2ccccc12 (configuration not stated) | 0.7 | -4 | 1.2 | -7 | 0.6% | 0
COc1c(C)cc(NC(=O)c2ccc3c(c2)NC(=O)CO3)cc1C | -0.7 | -10 | -7.2 | 4 | 0.7% | -1
O=C(O)CNS(=O)(=O)/C=C/c1ccccc1 | 0.2 | -2 | -3.1 | 8 | 1.0% | -6
C[C@@H](C(=O)CC(=O)OC(C)(C)C)[C@@H](O)c1ccccc1 | -0.2&0.2 | 6 | -0.6 | 1 | -0.3% | -8
Cc1ccc(S(=O)(=O)N2CCOCC2)cc1NC(=O)CSc1nccn1C | 1.1 | 7 | -1.7 | 19 | 1.2% | -2
CCCCCCCCCCCCCCCC(=O)OC(CC(=O)O)C[N+](C)(C)C (configuration not stated) | 0.1 | 8 | -8.8 | 2 | 7.8% | -12
O=C1CC(/C=C/c2ccco2)=Nc2ccccc2N1 | 0.5 | -1 | 2.1 | -1 | 0.2% | -1
CC12CCC(C(=O)NCc3ccc(F)cc3)(OC1=O)C2(C)C (configuration not stated) | 0.0 | 8 | -1.9 | -15 | -0.6% | 1
COc1cccc(CN(CC(=O)NCc2ccco2)C(=O)CNS(=O)(=O)c2ccccc2)c1 | -0.9 | 17 | ? | -1 | 6.7% | -4
COc1cc(NC(=O)C[n+]2ccc(C(=O)c3ccccc3)cc2)cc(OC)c1 | -0.5 | -9 | 1.0 | -7 | 1.4% | -4
CCOc1cccc2sc(N(CCN(C)C)C(=O)c3ccc4ccccc4c3)nc12 | -0.4 | -30 | 2.0 | -9 | 0.9% | -35
O=C(NCc1ccco1)c1cc(S(=O)(=O)N2CCCC2)ccc1Cl | 2.1 | -5 | -2.2 | 8 | 1.1% | -8
CCNc1ncnc2c1cnn2C | 1.0 | 4 | -5.1 | -2 | 0.4% | 4

Reformatted with two lines to a compound: part of the list above.
Results follow in this order: TRPML1 ag, CtBP-E1A inh, D2 ag, Six1-Eya2 blk, PINK1 modulator, D2 PAM
- CCc1ccc(O)c(N=Cc2ccccc2O)c1
    0.1, -4, 8.0, 1, -0.7%[38.3 µM], 30
- Cc1ccc2nc(SCc3cccc([N+](=O)[O-])c3)nc(C)c2c1
    1.9, -13, -3.6, -20, 6.0%, -4
- CCCCCCN1C[C@H](O)[C@@H](n2cc(C3CC3)nn2)C[C@@H]1c1ccc(C)cc1
    ., 6, 3.1, -4, 11%, .
- Cc1ccccc1N(CC(=O)N/N=C/c1ccc(F)cc1)C(=O)c1ccccc1
    4.9, 0, -3.8, -3, -4.8%, -11
- O=C(NC(Cc1ccccc1)C(=O)O)/C(=C\c1cccc([N+](=O)[O-])c1)NC(=O)c1ccco1 (configuration not stated)
    -0.8, 14, 2.6, 5, 2.5%, -18
- Cc1ccccc1-c1ccc(C(=O)Nc2cccc(F)c2)o1
    3.5, 0, -3.1, -2, 4.9%, -9
- COc1ccc(NC(=O)c2cc3ccccc3o2)cc1
    0.9, 1, 1.5, 4, 1.4%, -22

(more compounds)
SMILES | TRPML1 ag | CtBP-E1A inh | D2 ag | Six1-Eya2 blk | PINK1 modulator | D2 PAM
CC(C)n1c(Nc2ccccc2)nc2ccccc21 | 0.3 | -3 | -1.4 | 8 | -2.6% | -14
COc1c(C)cc(Br)cc1C(=O)Nc1ccc(Cc2ccncc2)cc1 | 0.7 | 0 | 4.8 | 0 | -0.7% | -12
COc1ccccc1NS(=O)(=O)c1ccc2c(c1)OCCO2 | 0.2 | -17 | ? | -2 | 0.2% | 0
Cc1nc2[nH]c(=O)n(O)c(=O)c2s1 | 0.1 | -15 | -1.9 | -2 | -0.5% | -2
COC(=O)c1ccc(NC(=O)c2cccc(NC(=O)c3ccco3)c2)cc1 | -0.6 | 5 | 2.2 | 4 | 0.2% | 1
O=C(Nc1ccccc1N1CCCCC1)c1cc(S(=O)(=O)N2CCOCC2)ccc1Cl | 0.9 | 0 | -2.3 | -11 | 3.5% | 4
Cc1ccc(NC(=O)CNC(=O)c2cccc(C)c2)nc1 | 0.2 | 4 | 3.5 | 5 | 7.4% | -4
Cc1cc(Cl)ccc1OCCCC(=O)NNC(=O)c1ccccc1O | 0.0 | -8 | -1.2 | -3 | ? | 4
CC[C@]12c3[nH]c4ccccc4c3CCN1C(=O)C(CC(=O)NCCC1=CCCCC1)C[C@@H]2C(=O)N1CCN(C(=O)C2CC2)CC1 (some centres not stated) | 0.4 | 4 | 0.2 | 3 | -0.5% | .
CC(C)(C)c1cc(C(C)(C)C)n(-c2ccccc2)n1 | 0.6 | 0 | -1.9 | 5 | 9.3% | 12
Cc1ccc(-c2ccc(=O)n(CC(=O)N3CCN(c4cccc(C)c4)C(C)C3)n2)cc1 (configuration not stated) | 0.9 | 5 | -1.0 | -5 | ? | -11
COc1ccc(CC(=O)Nc2cc(S(=O)(=O)N3CCOCC3)ccc2N2CCCC2)cc1 | -1.0 | 0 | -1.9 | 2 | -1.6% | -10
